Sfp PPTase inh: qHTS Assay for Inhibitors of Bacillus subtilis Sfp phosphopantetheinyl transferase (PPTase); 4'-phosphopantetheinyl transferase ffp (Bacillus subtilis), Q9F4F7; Biochemical Sfp PPTase activity, qHTS; Potency, µM, for inactives: max response, negative = inhibition, actives largely listed as inhibitors; actives 3.5% (n = 310,000); AID 1490, 2009; active = well fitted inhibition curve with a large enough effect; inconclusive = small, poorly fitted or top-dose-only effect, or another doubt; inactive = no such curve, though single readings can be large or run the other way;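 also: the enzyme is Sfp with the accession as filed and its product quenches rhodamine fluorescence; potency is read from the fitted curve at half-maximal effect; 0% = enzyme reaction without inhibitor and -100% = no enzyme wells; top concentration of the series not given in the record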
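After 15 min at room temperature with compound, 15 nM Sfp received 5 uM rhodamine-CoA plus 12.5 uM BHQ-2-ybbR (50 mM Hepes pH 7.6, 10 mM MgCl2). Rate came from the fluorescence difference over 30 min, ex 525/em 598 nm.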
PINK1 expr mod: A Quantitative High throughput Screen to Identify Chemical Modulators of PINK1 Expression; PINK1 immunofluorescence, high-content cytometry, 24 h; actives 0.2% (n = 410,000); Potency, µM (highest dose often 76.6 µM), for inactives: at the highest dose activation (PINK1 increase), most hits filed as activators; active = well fitted activation curve with a large enough effect; inconclusive = small, poorly fitted or top-dose-only effect; inactive = flat fitted curve, though single readings scatter; cell line not stated here;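 also: potency is read from the fitted curve at half-maximal effect; % of control where 0% means no effect; nearly all actives have a fitted effect of over 65% in size; a mitochondrial uncoupler was the plate control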
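Decision-based qHTS: stable cells, 24 h exposure to five compound concentrations, CCCP as control. Fixed cells stained for PINK1 plus nuclear, mitochondrial and cell markers, cytometer read.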
TRPV1 PAM: HTS Assay for Compounds that Act as Potentiators of the Vanilloid Receptor 1. Transient receptor potential cation channel subfamily V member 1 (Homo sapiens), Q8NER1. TRPV1-expressing cells, Fluo-8 calcium influx, capsaicin EC20 potentiation; host cell line not named in the record; control for the full effect not named in the record. potentiation, % at 8.33 µM. actives 0.02% (n = 320,000). AID 540277, 2011; active means potentiation above 80%; inconclusive means 30% to 80%; inactive means below 30%; also: 0% is about no effect
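Cells expressing TRPV1 were dye-loaded with Fluo-8 and read kinetically: 10 s baseline, 3 min after compound (agonist portion), then 2 min after EC20 capsaicin (allosteric enhancer portion). Calcium-bound dye fluorescence at 480/520 nm.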
D2 agonist: Beta-Arrestin HTS for Positive Allosteric Modulators of the Human D2 Dopamine Receptor: Agonists | actives 0.084% (n = 360,000) | D(2) dopamine receptor (Homo sapiens), P14416 | DiscoveRx PathHunter D2 beta-arrestin, luminescence, 90 min; 100% = 57 uM dopamine signal | activation, % (concentration not given with the values) | AID 624465, 2012; in the data active = activation above about 40%; inconclusive = about 15% to 40%; inactive = below about 15%; also: compound concentration not given in the record; the text of the record calls up to 30% inactive
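DiscoveRx PathHunter D2 beta-arrestin cells (2,100/well) attached overnight, then compound-stimulated 90 min at 37 C in HBSS/10 mM HEPES/0.1% Tween-20 buffer; beta-galactosidase complementation read by luminescence after 1 h at ambient temperature. Dopamine 57 uM final (EC100) as control.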
Six1-Eya2 inh: qHTS Assay for Inhibitors of the Six1/Eya2 Interaction | Homeobox protein SIX1 (Homo sapiens) + Protein phosphatase EYA2 (Homo sapiens), … | AlphaScreen GST-Six1/His-Eya2 binding, biochemical; active compounds read low; control for the full effect not named in the record | activity change, % (test concentration not listed) | actives 0.56% (n = 360,000) | AID 651725, 2012; in the data active = activity change below about -65%; inconclusive = about -30% to -65%; inactive = above about -30%; also: % is scaled to controls: 0 for no effect and ±100 for the full control effect
Target sequence (O00167 whole entry, looked up): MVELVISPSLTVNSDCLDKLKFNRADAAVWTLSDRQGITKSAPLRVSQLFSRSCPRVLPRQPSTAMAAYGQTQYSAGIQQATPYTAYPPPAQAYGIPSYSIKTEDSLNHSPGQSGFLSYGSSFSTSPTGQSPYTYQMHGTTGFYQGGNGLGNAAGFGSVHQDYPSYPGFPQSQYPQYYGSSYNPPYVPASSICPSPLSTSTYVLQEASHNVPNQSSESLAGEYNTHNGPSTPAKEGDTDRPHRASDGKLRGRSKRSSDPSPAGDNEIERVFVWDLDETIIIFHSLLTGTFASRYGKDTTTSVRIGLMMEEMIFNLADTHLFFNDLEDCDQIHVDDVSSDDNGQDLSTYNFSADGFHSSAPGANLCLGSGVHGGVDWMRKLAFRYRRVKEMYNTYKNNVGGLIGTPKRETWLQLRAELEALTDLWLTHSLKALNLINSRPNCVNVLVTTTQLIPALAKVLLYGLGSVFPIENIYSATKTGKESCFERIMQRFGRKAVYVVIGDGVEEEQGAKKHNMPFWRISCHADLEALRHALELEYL
Target sequence (Q15475 whole entry, looked up): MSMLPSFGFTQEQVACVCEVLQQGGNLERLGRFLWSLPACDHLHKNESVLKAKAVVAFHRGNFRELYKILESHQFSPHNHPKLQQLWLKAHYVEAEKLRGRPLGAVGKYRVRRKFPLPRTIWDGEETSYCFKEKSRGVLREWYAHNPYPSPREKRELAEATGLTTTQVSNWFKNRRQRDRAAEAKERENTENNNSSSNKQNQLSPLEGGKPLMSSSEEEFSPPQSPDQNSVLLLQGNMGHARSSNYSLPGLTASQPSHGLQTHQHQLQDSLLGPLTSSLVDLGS
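AlphaScreen luminescence read after one hour at 37 °C in darkness. Pin-transferred compounds met GST-Six1 and His-Eya2 protein (5X stock 250 nM/500 nM) plus glutathione donor and Ni-chelate acceptor beads (5X, 50 ug/mL).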
D2 potentiator: Beta-Arrestin HTS for Positive Allosteric Modulators of the Human D2 Dopamine Receptor: Potentiators. D(2) dopamine receptor (Homo sapiens), P14416. DiscoveRx D2 beta-arrestin cells, luminescence, 90 min; 100% = 57 uM dopamine signal. potentiation, % (test concentration not listed). actives 0.23% (n = 360,000). AID 624464, 2012; active = potentiation of 50% or more; inconclusive = 30% to 50%; inactive = 30% or less;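 also: compound concentration not given in the record; tested on top of an EC20 dose of dopamine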
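PathHunter D2 cells, attached overnight at 37 deg C, received compound in DMSO plus dopamine at EC20 (50 nM final) for 90 min at 37 deg C. Beta-arrestin recruitment was read as luminescence after 1 h with detection reagent at ambient temperature.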
CtBP-E1A blk: qHTS Assay for Inhibitors of the CtBP/E1A Interaction. AlphaScreen GST-E1A/His-CtBP binding, 1536-well; active compounds read low; control for the full effect not named in the record. activity change, % (concentration not given with the values). actives 0.49% (n = 340,000); in the data active means activity change below about -65%; inconclusive means about -30% to -65%; inactive means above about -30%; also: % is scaled to controls: 0 for no effect and ±100 for the full control effect
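Protein mix (5X: 125 nM each GST-E1A, His-CtBP) was incubated with pinned compound 2 h at 37 deg C in dark, in 50 mM Tris pH 8.0 buffer with 300 mM NaCl. Glutathione donor and nickel acceptor beads followed; AlphaScreen signal read after 1 h.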
The depositor's hits bear a star; ? = inconclusive; . = no result given; [ ] = remark or other dose.

no.	structure	Sfp PPTase inh	PINK1 expr mod	TRPV1 PAM	D2 agonist
1	Cc1ccc(OCC(=O)Nc2ccccc2C(=O)NC2CC2)cc1C	-10%	1.0%	-23	-1.0
2	O=C(COC(=O)CNS(=O)(=O)c1ccc2ccccc2c1)Nc1ccccc1Sc1ccccc1	32%[activator]	8.2%	1	1.6
3	CC(=O)c1ccc(NC(=O)Nc2ccc3c(c2)N(C)C(=O)CS3)cc1	-16%	-3.3%	0	4.7
4	CCc1nn2c(=O)c(S(=O)(=O)Nc3ccccc3)c(C)nc2s1	18%	-0.5%	5	1.9
5	CCOC(=O)c1c(NC(=O)c2ccccc2N(C)S(=O)(=O)c2ccccc2)sc2c1CCCC2	12%	7.1%	-4	-2.1
6	CSc1ccc(/C=C(\C(=O)O)c2ccc(S(=O)(=O)N3CCCC3)s2)cc1	.	0.5%	-5	8.5
7	CCOCCc1nn2c(=O)cc(CSCC(=O)Nc3ccc(OC)cc3)nc2s1	1%	-0.7%	3	-4.3
8	O=C(CSc1ccc(Br)cc1)Nc1ccccc1Oc1ccccc1	?	7.8%	-8	2.5
9	CC1(C(=O)NCc2cccc3ccccc23)CCN1C(=O)C1(c2ccccc2)CC1 (stereo not given)	.	0.2%	.	-4.6
10	Cc1ccc(NC(=O)COC(=O)C(NS(=O)(=O)c2ccc(Cl)cc2)C(C)O)c(Br)c1 (stereo not given)	1%	4.5%	8	-3.4
11	CCC(C)CCN1CCN=C1N(C)C (stereo not given)	.	0.2%	?	1.1
12	O=C1CSC(=Nc2ccc(F)cc2)N1	13%	-3.2%	9	-2.2
13	COc1ccc(CCNC(=O)Cn2cnc3ccccc3c2=O)cc1OC	16%	4.4%	12	-1.7
14	O=C(CS(=O)c1ccc(Br)cc1)N1CCOCC1 (stereo not given)	6%	0.1%	-6	0.8
15	CC(C)C(NC(=O)c1ccccc1)c1nnc(SCC(=O)NC2CCCC2)n1C (stereo not given)	16%	-1.2%	7	1.8

no.	Six1-Eya2 inh	D2 potentiator	CtBP-E1A blk
1	3	0	5
2	-3	4	3
3	-8	-2	-13
4	3	-1	10
5	15	-2	10
6	-3	0	-4
7	1	-5	0
8	6	-25	10
9	-2	-5	0
10	-7	-32	0
11	10	-9	-19
12	-6	-5	-11
13	12	-1	-7
14	8	-5	.
15	11	-6	-3

New compounds follow:
no.	structure	Sfp PPTase inh	PINK1 expr mod	TRPV1 PAM	D2 agonist
16	CN1CCCCC1(C)C(=O)NCc1ccc(C(C)(C)C)cc1 (stereo not given)	.	-0.5%	.	-4.5
17	CCOc1cc(/C=N/NC(=O)C2CCCC2)ccc1OC(C)C	10%	1.4%	-9	-3.2
18	Cc1nc2nc(C)c(NS(=O)(=O)c3ccc(C(C)(C)C)cc3)c(=O)n2[nH]1	14%	0.0%	9	1.1
19	N#CCCN(C(=O)COC(=O)CNS(=O)(=O)c1ccc2ccccc2c1)c1ccccc1	.	-0.4%	0	8.0
20	CC(=O)Nc1cccc(NC(=O)CN2c3cccc4cccc(c34)S2(=O)=O)c1	.	-2.2%	16	9.9
21	Cc1ccc(C(=O)NC(=S)Nc2ccc3[nH]c(=O)[nH]c3c2)cc1C	-14%	2.5%	20	3.1
22	C[C@@H](C(=O)Nc1ccc(OC(F)F)c(Cl)c1)N1C(=O)C2CC=CCC2C1=O (stereo not given in full)	.	2.4%	.	-1.6
23	Cc1nn(C2CCS(=O)(=O)C2)c2nc(C3CC3)cc(C(=O)Nc3cccc(C#N)c3)c12 (stereo not given)	.	-3.1%	28	-6.3
24	Cc1ccc(CN(C)C(=O)c2ccccc2NC(=O)c2ccccc2)o1	.	1.9%	13	-0.8
25	CCC(=O)N1CCN(c2ccc(NC(=O)COc3cccc(C)c3C)cc2)CC1	-4%	-1.0%	-20	8.1
26	O=C(COC(=O)C1CCN(S(=O)(=O)c2ccc3c(c2)OCCO3)CC1)Nc1ccccc1OC(F)F	7%	-0.8%	4	-2.0
27	O=C(Cc1ccc(S(=O)(=O)N2CCOCC2)s1)NCCOc1ccccc1	.	1.0%	9	-3.5
28	COc1cc(/C=N/O)ccc1OCc1ccccc1Cl	-9%	1.8%	16	-1.0
29	CCOc1ccccc1OCCCC(=O)OCC(=O)Nc1cccc(Cl)c1	22%	3.5%	1	6.4
30	O=C(O)c1ccccc1C(=O)Nc1nc(-c2ccccc2)cs1	7%	2.0%	4	1.7

no.	Six1-Eya2 inh	D2 potentiator	CtBP-E1A blk
16	-1	1	-2
17	1	10	10
18	6	-2	-2
19	-1	0	2
20	-30	17	-24
21	6	-18	-5
22	3	-4	6
23	-7	-44	3
24	-2	-3	-24
25	-3	3	-19
26	0	6	2
27	3	-18	6
28	0	11	4
29	1	-1	10
30	-4	1	.

Compound profiles, from the list above.
O=C(COC(=O)C1CCN(S(=O)(=O)c2ccc3c(c2)OCCO3)CC1)Nc1ccccc1OC(F)F reads Sfp PPTase inh = 7%; PINK1 expr mod = -0.8%; TRPV1 PAM = 4; D2 agonist = -2.0; Six1-Eya2 inh = 0; D2 potentiator = 6; CtBP-E1A blk = 2
O=C(Cc1ccc(S(=O)(=O)N2CCOCC2)s1)NCCOc1ccccc1 reads Sfp PPTase inh = .; PINK1 expr mod = 1.0%; TRPV1 PAM = 9; D2 agonist = -3.5; Six1-Eya2 inh = 3; D2 potentiator = -18; CtBP-E1A blk = 6

More entries.
no.	structure	Sfp PPTase inh	PINK1 expr mod	TRPV1 PAM	D2 agonist
31	O=C(NC1CCCC1)c1ccc(CS(=O)Cc2ccc(Cl)cc2)o1 (stereo not given)	8%	0.2%	0	1.4
32	CC(C)C(NC(=O)c1ccccc1NC(=O)c1ccco1)C(=O)NNC(=O)c1ccncc1 (stereo not given)	27%	-2.2%	1	-1.4
33	Cc1ccc(S(=O)(=O)N2CCN(C(=O)COC(=O)CNC(=O)c3ccc(Cl)cc3Cl)CC2)c(C)c1	.	0.7%	.	-1.4
34	Nc1nc(N)c(C=Nc2ccc(Br)cc2)c(Nc2ccc(Br)cc2)n1	10%	-1.5%	-10	-7.7
35	CCCn1c(NC(=O)CCS(=O)(=O)c2ccc(C)cc2)nc2ccccc21	.	8.2%	7	-8.5
36	CCN(CC)C(=O)CNC(=O)c1nn(-c2ccc(OC)c(Cl)c2)c(=O)c2ccccc12	9%	-0.5%	-11	1.1
37	CC1(C(=O)Nc2ccc3c(c2)OCO3)CCN1C(=O)c1ccco1 (stereo not given)	.	0.3%	.	-2.1
38	CCN(CC)S(=O)(=O)c1ccc2oc(SCC(=O)NC3CC3)nc2c1	40µM*	3.5%	3	-1.8
39	COc1ccccc1CCC(=O)N(Cc1ccccc1)c1c(N)n(Cc2ccccc2)c(=O)[nH]c1=O	15%	2.9%	-4	-1.1
40	CCS(=O)(=O)Nc1cccc(C2=NN(S(=O)(=O)CC)C(c3ccccc3)C2)c1 (stereo not given)	17%	6.9%	?	-3.9
41	CC(=Nc1ccccc1)c1sc2ccccc2c1O	-14%	0.0%	-23	-2.4
42	CCn1c(SCC(=O)Nc2nonc2C)nnc1-c1ccoc1C	10%	-0.6%	-6	-5.1
43	CCOC(=O)C1CCc2c(ccc3ccccc23)N1CCC#N (stereo not given)	.	5.2%	.	-0.8
44	CCn1c(=O)n(CC)c2cc(N3CCCC3)c(NC(=O)c3ccc(C)cc3)cc21	1%	2.3%	1	0.6
45	Cc1ccc(NC(=O)CS(=O)CC(=O)NC(C)CCc2ccco2)cc1Cl (stereo not given)	-5%	8.2%	-6	-1.0

no.	Six1-Eya2 inh	D2 potentiator	CtBP-E1A blk
31	2	0	0
32	-26	-9	3
33	2	-3	.
34	-9	-21	.
35	-5	-20	-11
36	4	0	1
37	0	-1	5
38	2	1	-4
39	1	-6	4
40	-1	0	.
41	-2	-16	-5
42	-3	-11	-3
43	4	-7	2
44	-13	-10	.
45	10	0	11

Following part.
no.	structure	Sfp PPTase inh	PINK1 expr mod	TRPV1 PAM	D2 agonist
46	CC1CN(C(=O)c2ccc(S(=O)(=O)Nc3cccc(C(F)(F)F)c3)cc2)CC(C)O1 (stereo not given)	.	3.7%	-11	-1.8
47	CCOc1ccc(OCCCCn2cnc3ccccc3c2=O)cc1	5%	0.0%	-8	-0.2
48	O=CN1CCc2scc[n+]2-c2ccccc21	32µM*	9.1%[38.3 µM]	8	-3.2
49	Cc1cc(Nc2nc3ccccc3[nH]c2=O)n(-c2ccccc2)n1	15%	-0.3%	-19	-3.8
50	O=C(Nc1ccccc1)C12CC3CC(C1)CC(n1cnc([N+](=O)[O-])n1)(C3)C2	2%	-1.1%	-6	2.2
51	O=C(NC(Nc1nc2ccccc2s1)(C(F)(F)F)C(F)(F)F)c1ccccc1	9%	-2.0%	-11	-1.8

no.	Six1-Eya2 inh	D2 potentiator	CtBP-E1A blk
46	4	13	-24
47	4	-1	-11
48	1	-8	6
49	-3	-13	0
50	4	22	-2
51	9	-7	-7

Compound activity as filed in PubChem BioAssay.

Hits appear at their usual frequency; about 3.7% have a hit in one of these screens.
